Assay outcomes (PubChem BioAssay)
HIV Env fusion: HIV envelope-mediated fusion inhibition. HeLa-JRFL Env/CEM21 cell fusion, luciferase. AID 651610. 360,000 compounds, 1.1% hits. inhibition, % at 12.3 µM;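 active = mean replicate inhibition score of at least 50 and every replicate individually at or above 50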;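 note: 0% = plate neutral controls and 100% = maraviroc near 300 nM; one replicate is shown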
Yeast UUG start: modulators of start codon recognition fidelity in yeast; S. cerevisiae UUG-firefly luciferase reporter, luminescence/redox ratio; activity score, % at 18.7 µM; 350,000 compounds, 0.13% hits;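 active = replicate mean at a twofold rise or more, about +100% in these data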;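 note: firefly luciferase made from a UUG start codon reports start codon fidelity; reporter light over untreated wells divided by growth signal over untreated wells; some hits fall short of that in this replicate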
* hit, by the source's call; [ ] = dose if it differs, or a comment. Some of the compounds tested; count on the stated rates, not on these rows.

mol,HIV Env fusion,Yeast UUG start
C[C@@H]1CCCCO[C@H](CN(C)Cc2ccc(C(F)(F)F)cc2)[C@@H](C)CN([C@@H](C)CO)C(=O)c2cc(NC(=O)NC3CCCCC3)ccc2O1,-2.6[16.7 µM],13.6
Cc1ccc(S(=O)(=O)Nc2cccc3c2O[C@H](CN(C)Cc2ccccc2)[C@H](C)CN([C@H](C)CO)C3=O)cc1,27.7[16.7 µM],-4.9
COc1ccc(NC(=O)N(C)C[C@@H]2OCCCC[C@@H](C)Oc3ccc(NC(=O)C4CCCCC4)cc3C(=O)N([C@@H](C)CO)C[C@@H]2C)cc1,-5.9[16.7 µM],0.0
C[C@@H](NC(=O)C[C@@H]1C[C@@H]2c3cc(NS(C)(=O)=O)ccc3O[C@@H]2[C@H](CO)O1)c1ccccc1,-2.4[16.7 µM],-9.8
CC(C)NC(=O)N(C)C[C@@H]1Oc2c(NS(=O)(=O)c3cccs3)cccc2C(=O)N([C@@H](C)CO)C[C@@H]1C,-18.2[16.7 µM],-9.0
C[C@H]1CN([C@@H](C)CO)C(=O)Cc2cc(NC(=O)NC3CCCCC3)ccc2O[C@H]1CN(C)S(=O)(=O)c1ccc(Cl)cc1,-20.9[16.7 µM],6.9
O=C(C[C@@H]1C[C@@H]2c3cc(NC(=O)c4ccc5c(c4)OCO5)ccc3O[C@@H]2[C@H](CO)O1)NC1CCCC1,-13.3[16.7 µM],-30.9
CCC(=O)Nc1ccc2c(c1)OC[C@@H](C)N(C(=O)c1cnccn1)C[C@H](C)[C@@H](OC)CN(C)C2=O,-9.4[16.7 µM],45.7
CNC[C@@H]1Oc2ccc(NC(=O)c3ccncc3)cc2C(=O)N([C@@H](C)CO)C[C@@H]1C,-5.3[16.7 µM],-14.9
COc1ccc(S(=O)(=O)Nc2ccc3c(c2)CC(=O)N([C@@H](C)CO)C[C@@H](C)[C@H](CN(C)Cc2ccc(-c4ccccc4)cc2)O3)cc1,45.0[16.7 µM],12.4
CC(C)CC#Cc1cnc2c(c1)C(=O)N([C@@H](C)CO)C[C@H](C)[C@@H](CN(C)C(=O)Cc1cccnc1)O2,-60.5[16.7 µM],-2.2
COc1ccc(NC(=O)Nc2ccc3c(c2)[C@H]2C[C@H](CC(=O)NC4CCCC4)O[C@H](CO)[C@H]2O3)cc1,31.4[16.7 µM],5.0
C[C@H](CO)N1C[C@H](C)[C@H](CN(C)C(=O)c2ccccc2)OCCCC[C@H](C)Oc2ccc(NC(=O)Nc3ccc(C(F)(F)F)cc3)cc2C1=O,47.1[16.7 µM],-12.2
CCCC#Cc1cnc2c(c1)C(=O)N([C@@H](C)CO)C[C@@H](C)[C@H](CN(C)C(=O)c1ccccc1)O2,-1.6[16.7 µM],1.1
C[C@@H]1CN([C@H](C)CO)S(=O)(=O)c2ccc(C#Cc3ccccc3F)cc2O[C@@H]1CN(C)CC1CC1,10.6[16.7 µM],-2.5
Cc1noc(C)c1NC(=O)N(C)C[C@@H]1OCCCC[C@H](C)Oc2ccc(NS(=O)(=O)c3c(C)noc3C)cc2C(=O)N([C@H](C)CO)C[C@@H]1C,1.9[16.7 µM],2.9
COc1cccc(C#Cc2cnc3c(c2)C(=O)N([C@H](C)CO)C[C@@H](C)[C@H](CN(C)C(=O)C2CCOCC2)O3)c1,7.5[16.7 µM],16.2
CC(C)NC(=O)N(C)C[C@@H]1Oc2ccc(NC(=O)NC3CCCCC3)cc2CC(=O)N([C@H](C)CO)C[C@H]1C,-3.9[16.7 µM],3.1
C[C@@H]1CN([C@@H](C)CO)C(=O)Cc2cc(N(C)C)ccc2O[C@@H]1CN(C)S(=O)(=O)c1cn(C)cn1,4.0[16.7 µM],-2.4
CCS(=O)(=O)NCC[C@H]1CC[C@H](NC(=O)C2CCOCC2)[C@@H](CO)O1,15.6[16.7 µM],5.5
O=C(NCC[C@H]1CC[C@@H](NS(=O)(=O)Cc2ccccc2)[C@H](CO)O1)C1CC1,-15.2[16.7 µM],-4.3
Cc1noc(C)c1NC(=O)Nc1ccc2c(c1)C(=O)N([C@@H](C)CO)C[C@@H](C)[C@@H](CN(C)S(=O)(=O)c1cn(C)cn1)OCCCC[C@@H](C)O2,14.0[16.7 µM],-2.6
Cc1ccc(S(=O)(=O)N(C)C[C@H]2Oc3c(NC(=O)Nc4c(C)noc4C)cccc3C(=O)N([C@H](C)CO)C[C@@H]2C)cc1,-29.4[16.7 µM],-2.0
O=C(C[C@@H]1C=C[C@@H](NC(=O)Nc2ccc(C(F)(F)F)cc2)[C@H](CO)O1)NCCN1CCCC1,-8.1[16.7 µM],-8.8
CC(C)C(=O)Nc1ccc2c(c1)C(=O)N(C)[C@@H]1CC[C@@H](CC(=O)NCCc3ccccc3)O[C@@H]1CO2,-23.2[16.7 µM],4.0
C[C@@H]1CN([C@@H](C)CO)C(=O)c2cc(-c3ccccc3)cnc2O[C@@H]1CN(C)C(=O)NC1CCCC1,20.4[16.7 µM],-2.4
C[C@H](CO)N1C[C@H](C)[C@H](CN(C)C(=O)c2ccncc2)OCCCC[C@H](C)Oc2ccc(NS(=O)(=O)c3ccc(F)cc3)cc2C1=O,6.2[16.7 µM],-10.5
C[C@H]1CN([C@@H](C)CO)S(=O)(=O)c2ccc(C#Cc3ccncc3)cc2O[C@H]1CN(C)C(=O)C1CC1,-3.6[16.7 µM],-1.9
COc1ccc(-c2cnc3c(c2)C(=O)N([C@@H](C)CO)C[C@H](C)[C@H](CN(C)C(=O)Cc2cccnc2)O3)cc1,-3.3[16.7 µM],-11.1
COCC(=O)Nc1ccc2c(c1)[C@@H]1C[C@H](CC(=O)NC3CCCCC3)O[C@@H](CO)[C@@H]1O2,24.8[16.7 µM],-6.1
CCCC(=O)Nc1ccc2c(c1)C(=O)N(C)[C@@H]1CC[C@@H](CC(=O)NCCOC)O[C@@H]1CO2,-3.3[16.7 µM],-24.4
C[C@H](CO)N1C[C@H](C)[C@H](CN(C)C(=O)CC2CC2)Oc2cc(-c3ccncc3)ccc2S1(=O)=O,-14.3[16.7 µM],-6.3
C[C@@H]1CCCCO[C@@H](CN(C)C(=O)Cc2ccccc2)[C@H](C)CN([C@H](C)CO)C(=O)c2cc(NS(C)(=O)=O)ccc2O1,-8.0[16.7 µM],4.1
O=C(Nc1cccc(Cl)c1)N[C@@H]1CC[C@H](CCNC(=O)C2CCCCC2)O[C@H]1CO,-55.0[16.7 µM],-5.2
C[C@@H]1CN([C@H](C)CO)C(=O)c2cccc(N(C)C)c2O[C@@H]1CN(C)Cc1ccc(C(=O)O)cc1,6.1[16.7 µM],-10.4
C[C@@H]1CN([C@@H](C)CO)C(=O)c2cc(NS(=O)(=O)c3ccc(F)cc3)ccc2O[C@@H](C)CCCCO[C@@H]1CN(C)C(=O)Nc1cccc2ccccc12,7.2[16.7 µM],11.7
CN(C)Cc1cn(CC[C@H]2CC[C@H](NS(=O)(=O)c3ccccc3)[C@@H](CO)O2)nn1,4.3[16.7 µM],-0.7
Cc1ccc(S(=O)(=O)N(C)C[C@@H]2OCCCC[C@H](C)Oc3ccc(NC(=O)CCC(F)(F)F)cc3C(=O)N([C@H](C)CO)C[C@H]2C)cc1,27.5[16.7 µM],8.1
Cc1ccc(S(=O)(=O)Nc2ccc3c(c2)C(=O)N([C@H](C)CO)C[C@@H](C)[C@@H](CN(C)C(=O)c2ccccc2)OCCCC[C@H](C)O3)cc1,-29.1[16.7 µM],21.3
CO[C@H]1CN(C)C(=O)c2cc(NC(=O)Nc3ccccc3Cl)ccc2OC[C@H](C)NC[C@@H]1C,4.3[16.7 µM],-2.9
CCCc1cn(CC[C@@H]2CC[C@H](NC(=O)C3CCC3)[C@@H](CO)O2)nn1,9.7[16.7 µM],-4.8
O=C(C[C@H]1C=C[C@H](NC(=O)C2CCC2)[C@@H](CO)O1)Nc1nccs1,1.3[16.7 µM],-1.2
O=C1O[C@@H](c2ccccc2)[C@@H](c2ccccc2)N2[C@@H](c3ccccc3OCCO)[C@]3(C(=O)Nc4ccc(C#CC5=CCCCC5)cc43)[C@@H](C(=O)N3CCCCCCC3)[C@H]12,-5.6[16.7 µM],-13.4
N#C[C@@H]1[C@H](c2ccc(C#Cc3ccc(F)cc3)cc2)[C@@H](CO)N1C(=O)C1CCCC1,10.9[16.7 µM],-20.8
C[C@@H]1CN([C@H](C)CO)C(=O)c2cc(NS(=O)(=O)c3cn(C)cn3)ccc2O[C@@H]1CN(C)Cc1ccc(C(F)(F)F)cc1,-2.9[16.7 µM],-10.3

Whole records, looked up by structure. Values in the order: HIV Env fusion | Yeast UUG start
Results for C[C@H](CO)N1C[C@H](C)[C@H](CN(C)C(=O)CC2CC2)Oc2cc(-c3ccncc3)ccc2S1(=O)=O = -14.3[16.7 µM] | -6.3
Results for O=C1O[C@@H](c2ccccc2)[C@@H](c2ccccc2)N2[C@@H](c3ccccc3OCCO)[C@]3(C(=O)Nc4ccc(C#CC5=CCCCC5)cc43)[C@@H](C(=O)N3CCCCCCC3)[C@H]12 = -5.6[16.7 µM] | -13.4
Results for C[C@@H]1CN([C@H](C)CO)C(=O)c2cc(NS(=O)(=O)c3cn(C)cn3)ccc2O[C@@H]1CN(C)Cc1ccc(C(F)(F)F)cc1 = -2.9[16.7 µM] | -10.3

More structures.
mol,HIV Env fusion,Yeast UUG start
Cc1ccc(S(=O)(=O)Nc2ccc3c(c2)C(=O)N([C@@H](C)CO)C[C@@H](C)[C@H](CN(C)C(=O)Nc2cccc4ccccc24)O3)cc1,27.4[16.7 µM],9.7
O=C(C[C@H]1C=C[C@H](NC(=O)c2ccc(F)cc2)[C@@H](CO)O1)NCCc1ccccc1,-24.6[16.7 µM],-15.0
COCC#Cc1cnc2c(c1)C(=O)N([C@@H](C)CO)C[C@H](C)[C@@H](CN(C)C(=O)c1ccc3c(c1)OCO3)O2,-15.7[16.7 µM],5.6
O=C(Cc1ccccc1)N[C@@H]1CC[C@H](CC(=O)N2CCCCC2)O[C@H]1CO,13.4[16.7 µM],-7.9
C[C@H]1CN([C@@H](C)CO)C(=O)c2cc(NC(=O)Nc3ccc(F)cc3)ccc2O[C@H]1CN(C)C(=O)Nc1ccccc1,-9.6[16.7 µM],4.4
Cn1cnc(S(=O)(=O)N2C[C@H](O)COC[C@H]3O[C@H](CC(=O)NC4Cc5ccccc5C4)CC[C@@H]32)c1,-8.4[16.7 µM],-11.0
O=C(N[C@H]1C=C[C@H](CC(=O)N2CCN(c3ccccc3)CC2)O[C@H]1CO)c1ccccc1,10.9[16.7 µM],-0.4
C[C@@H]1CN([C@H](C)CO)C(=O)c2cc(-c3ccccc3)cnc2O[C@H]1CN(C)Cc1ccc(C(=O)O)cc1,-52.5[16.7 µM],12.2
Cc1noc(C)c1S(=O)(=O)Nc1ccc2c(c1)C(=O)N([C@H](C)CO)C[C@H](C)[C@H](CN(C)S(=O)(=O)c1cn(C)cn1)O2,11.6[16.7 µM],1.7
C[C@@H]1CN([C@@H](C)CO)S(=O)(=O)c2ccc(-c3cncnc3)cc2O[C@@H]1CN(C)Cc1cccnc1,-7.6[16.7 µM],0.5
C[C@@H]1CN([C@@H](C)CO)S(=O)(=O)c2ccc(-c3ccncc3)cc2O[C@H]1CN(C)Cc1ccccn1,4.9[16.7 µM],-12.4
O=C(Nc1ccc2c(c1)[C@@H]1C[C@H](CC(=O)N3CCOCC3)O[C@@H](CO)[C@@H]1O2)c1ccc2c(c1)OCO2,-10.8[16.7 µM],-1.8
C[C@@H]1CCCCO[C@H](CN(C)CC2CCCCC2)[C@H](C)CN([C@H](C)CO)C(=O)c2cc(NS(C)(=O)=O)ccc2O1,8.1[16.7 µM],25.7
Cc1noc(C)c1S(=O)(=O)Nc1ccc2c(c1)C(=O)N([C@H](C)CO)C[C@H](C)[C@H](CN(C)Cc1ccc(C(F)(F)F)cc1)O2,-37.5[16.7 µM],4.8
C[C@@H]1CN([C@@H](C)CO)C(=O)Cc2cc(NC(=O)CCC(F)(F)F)ccc2O[C@H]1CN(C)C(=O)Nc1ccc(C(F)(F)F)cc1,8.7[16.7 µM],5.4
CC(C)NC(=O)N(C)C[C@H]1Oc2cc(-c3ccncc3)ccc2S(=O)(=O)N([C@@H](C)CO)C[C@H]1C,7.0[16.7 µM],-9.9
COc1ccc(NC(=O)Nc2ccc3c(c2)C(=O)N([C@@H](C)CO)C[C@H](C)[C@@H](CN(C)C(=O)Nc2ccc(OC)cc2)O3)cc1,6.3[16.7 µM],11.5
CO[C@@H]1CN(C)C(=O)c2cc(NC(=O)C3CCOCC3)ccc2OC[C@@H](C)N(C(C)=O)C[C@@H]1C,-3.3[16.7 µM],-0.5
CC(=O)N(C)C[C@@H]1Oc2cc(-c3ccc(C#N)cc3)ccc2S(=O)(=O)N([C@@H](C)CO)C[C@@H]1C,16.7[16.7 µM],-0.5
Cc1noc(C)c1S(=O)(=O)N(C)C[C@H]1Oc2ccc(NS(=O)(=O)c3ccc(Cl)cc3)cc2C(=O)N([C@@H](C)CO)C[C@H]1C,-16.0[16.7 µM],-1.2
C[C@@H]1CCCCO[C@@H](CN(C)Cc2ccncc2)[C@H](C)CN([C@@H](C)CO)C(=O)c2cc(NS(=O)(=O)c3cccs3)ccc2O1,0.2[16.7 µM],-10.0
Cc1ccc(S(=O)(=O)N(C)C[C@@H]2Oc3c(NC(=O)C4CCCCC4)cccc3C(=O)N([C@@H](C)CO)C[C@H]2C)cc1,-10.9[16.7 µM],10.2
C[C@H](CO)N1C[C@H](C)[C@@H](CN(C)S(C)(=O)=O)Oc2ccc(NC(=O)CCCCCC(=O)Nc3ccccc3N)cc2CC1=O,14.1[16.7 µM],-3.9
COc1cccc(S(=O)(=O)N[C@H]2C=C[C@H](CC(=O)NC3CCC3)O[C@@H]2CO)c1,19.8[16.7 µM],2.9
